MgrA-DNA mod – alters Staphylococcus aureus MgrA binding to DNA | fluorescence polarization | inhibition, %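 (about 10 µg/mL by stock and volumes)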 | 84,000 compounds, 0.13% hits | AID 602314;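 active means above 50% in either of two replicates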;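 further: 0% = protein plus DNA without compound and 100% = DNA alone without protein; higher means less MgrA bound to DNA so lower polarization; one replicate is shown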
Sa helicase inh – S. aureus DNA helicase inhibition; inhibition, %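 (tested at about 80 µM)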; purified S. aureus helicase, fluorescence unwinding assay; about half of the hits fall short of the stated cut; 120,000 compounds, 0.05% hits; AID 485395;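 active means both duplicates at 50% or more, or one of them with a favoured structure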;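 further: 0% = mean of negative control wells and 100% = mean of positive control wells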
* = called active by the depositor; i = inactive; nt = not tested or not shown. Some of the compounds tested; count on the stated rates, not on these rows.

SMILES	MgrA-DNA mod	Sa helicase inh
Cc1ccc(OCC(O)CN)cc1 (stereo unspecified)	-0.1	2.0
CC(CCc1ccccc1)NC(=O)c1ccc(CS(=O)(=O)c2ccc(Br)cc2)o1 (stereo unspecified)	2.0	12.0
Cc1ccc(OCC(=O)NC(Cc2c[nH]c3ccccc23)C(=O)O)cc1 (stereo unspecified)	nt	3.0
OCCOc1ccccc1OCCBr	-2.8	5.0
O=S(=O)(CCN1CCN(c2ccccn2)CC1)c1ccc(Cl)cc1Cl	-1.9	nt
N/C(=N\O)c1nccnc1Oc1cccc(C(F)(F)F)c1	1.5	nt
COC(=O)CCSc1ncnc2sc3c(c12)CCC3	nt	2.0
C=CCOC1=NC2C(C(=O)N(C)C(=O)N2C)N1C (stereo unspecified)	1.8	17.0
CCc1ccc(C=C2C(=O)OC(C)(C)OC2=O)o1	nt	8.0
Cc1nc2cc(Cl)ccc2n1CO	nt	25.0
Cc1nc(N2CCN(C)CC2)c2sc(=S)n(-c3ccccc3)c2n1	-3.0	nt
COc1ccccc1/C=C/c1ccccc1OC	-1.6	9.0
COc1ccc(C(=O)OCC(=O)N2CC3(C)CC2CC(C)(C)C3)cc1 (stereo unspecified)	nt	-14.0
S=C1NC2=C(C(c3ccccc3)N1)N1CCC2CC1 (stereo unspecified)	0.8	5.0
CN(CC(=O)NC1CCCCCC1)c1nnc(N2CCCC2=O)s1	nt	14.0
COc1ccc(C2(C(=O)O)CCOCC2)cc1	-1.4	-5.0
CCOC(=O)C1C(=O)C=C(c2ccco2)CC1c1ccc(C)cc1 (stereo unspecified)	nt	16.0
CN(C)C(=O)c1ccccc1NS(=O)(=O)c1ccc(Br)cc1	-0.4	-2.0
COC(CNS(=O)(=O)c1ccc2c(c1)c(=O)n(C)c(=O)n2C)OC	nt	38.0
O=C1C=C(NCCc2ccccc2)CC(c2ccco2)C1 (stereo unspecified)	2.2	12.0
COc1ccc(C(=O)OCC(=O)NC2(C#N)CCCC2)cc1F	nt	1.0
Cc1ccc(-n2nnc(-c3ccc(Cl)cc3)n2)cc1	nt	3.0
CC(C)NC(=O)C1CC(=O)N(c2ccc(Oc3ccccc3)cc2)C1 (stereo unspecified)	0.8	5.0
Cc1ccc(N=C(N)N=C(N)N)c(C)c1	-2.3	nt
CC(Sc1nc(-c2ccccc2)cc(C(F)(F)F)n1)C(=O)NCCCn1ccnc1 (stereo unspecified)	1.6	5.0
Cc1ccc2[nH]c(=O)c3cc(C(=O)N4CCc5ccccc54)sc3c2c1	0.8	-1.0
COC(=O)c1c(S(N)(=O)=O)c(C)n(C)c1C	1.5	nt
CSc1nnc(COc2ccc(C(C)C)cc2)o1	0.0	2.0
Cn1c(=O)c(=O)n(C)c2cc(S(=O)(=O)CCC(=O)NC3CCCCCCC3)ccc21	nt	-16.0
O=C(OCc1ccc(Cl)cc1Cl)c1ccncc1	1.3	-7.0
CC(C)CNc1cc(NCCO)c2c3c(onc13)-c1ccccc1C2=O	-4.5	11.0
COc1cc2c(cc1OC)C(C)N(C(=O)c1ccno1)CC2 (stereo unspecified)	-4.7	nt
O=C(O)CCc1ccc(-c2cccs2)n1-c1cccc(O)c1	nt	13.0
COc1ccc(/C=C2/C(C)=C(C#N)c3nc(N)c(C#N)c(C)c32)cc1OC	0.5	nt
CCN(CC)S(=O)(=O)c1ccc2oc(C(=O)NCCCN3CCOCC3)c(C)c2c1	nt	3.0
COc1cc(N2C(=O)CSCC2=O)c(Cl)cc1Cl	4.4	nt
Cn1c(NCCO)nc2ccccc21	0.4	-23.0
COc1cc(C2C(C#N)=C(SCc3ccccc3)NC3=C2C(=O)CCC3)ccc1O (stereo unspecified)	nt	16.0
CCC(CC)NCC(=O)Nc1cc2oc3ccccc3c2cc1OC	nt	5.0
Cc1nn(CCCC(=O)NCCN2CCOCC2)c(=O)c2c1sc1ccccc12	nt	37.0
CCOC(=O)C1=C(C)Nc2ccccc2N=C1NC(=O)CCNC(=O)c1ccco1	nt	-12.0
Cc1ccc(C)c(C(C)Sc2ncccc2C(=O)O)c1 (stereo unspecified)	-2.7	nt
CCCCC/C=C\C/C=C\C/C=C\C/C=C\CCCC(=O)O[C@H](COCCCCCCCCCCCCCCCC)COP(=O)([O-])OCC[N+](C)(C)C	0.1	nt
O=C(Oc1nsnc1N1CCCCC1)N(c1ccccc1)c1ccccc1	-0.9	18.0
NC(=O)c1cc(Br)cc(Br)c1	-0.4	nt
CCOC(=O)c1c(C)n(C)c2ccccc12	-2.0	11.0
N#CC(C(=O)Nc1ccc(Cl)c(Cl)c1)=C1Nc2ccccc2N1	nt	-33.0
COC(=O)c1cc(Cl)cc(Cl)c1O	0.4	4.0
CC(NC(=O)C(C)(C)C)c1nc2ccccc2[nH]1 (stereo unspecified)	nt	-17.0
COC(=O)c1sccc1OC	-1.1	nt
(cont.)
SMILES	MgrA-DNA mod	Sa helicase inh
Cc1cc(C)c2c(-c3ccccc3)[nH]nc2n1	nt	6.0
CCOC(=O)Nc1ccc2c(COC(=O)c3nc4nc(C)ccn4n3)cc(=O)oc2c1	nt	3.0
Cc1cccc(NC(=O)CSc2sc3c(=O)[nH]c(=O)[nH]c3c2C#N)c1	-2.9	2.0
CC(C)(C)c1cc(C(=O)CCN2CCOCC2)cc(C(C)(C)C)c1O	nt	-20.0
Cc1csc2nc(SCC(=O)NCc3ccccc3)[nH]c(=O)c12	0.7	0.0
CCOc1ccc(CC(=Nc2ccccc2O)C2=C(O)CC(C)(C)CC2=O)cc1OCC	1.5	-1.0
CCC(=O)NC1=NC(=O)/C(=C/c2cn(C(=O)CC)nc2-c2ccccc2)S1	13.6	-13.0
CCCSc1ncc(CO)n1Cc1ccccc1	nt	2.0
Cc1cc(NC(=O)COC(=O)C(C)N2C(=O)C3CC=CCC3C2=O)no1 (stereo unspecified)	nt	-10.0
COc1ccc2c(c1)nc(COc1ccccc1)n2C	0.7	-6.0
O=C1c2ccccc2C(=O)N1Cc1nc2ccc(Br)cn2c1NC1CCCCC1	2.0	12.0
O=C(CCCN1C(=O)c2ccccc2C1=O)NC1CCCC1	0.1	6.0
O=C(O)c1ccc2c3ccc(C(=O)O)c4c(C(=O)O)cc5c(c6c(cc(C(=O)O)c1c26)S5(=O)=O)c43	nt	i
O=C(C1CC1)n1cc(C(=S)N2CCOCC2)c2ccccc21	2.3	3.0
Brc1cccc(-c2noc(Cc3ccccc3)n2)c1	nt	49.0
COC(=O)c1sccc1NN1C(=O)c2ccccc2C1=O	0.0	nt
COc1c(I)cc(Cl)c2cccnc12	0.8	nt
CSc1ccc(/C=C(\C#N)C(=O)C(C)(C)C)cc1	nt	3.0
O=C(O)C12CC3CC(C1)CC(n1ncc(NCCc4ccccc4)c(Cl)c1=O)(C3)C2	1.9	-11.0
Cc1cc(=O)oc2cc(OCC(=O)O)c(Cl)cc12	nt	6.0

Ordered by value in MgrA-DNA mod (descending): 5 from the list above.
SMILES	MgrA-DNA mod	Sa helicase inh
O=C(C1CC1)n1cc(C(=S)N2CCOCC2)c2ccccc21	2.3	3.0
O=C(O)C12CC3CC(C1)CC(n1ncc(NCCc4ccccc4)c(Cl)c1=O)(C3)C2	1.9	-11.0
COc1c(I)cc(Cl)c2cccnc12	0.8	nt
O=C(CCCN1C(=O)c2ccccc2C1=O)NC1CCCC1	0.1	6.0
COC(=O)c1sccc1NN1C(=O)c2ccccc2C1=O	0.0	nt

(list continues)
SMILES	MgrA-DNA mod	Sa helicase inh
CCN1CCCC1CNC(=O)C1c2ccccc2C(=O)N(C)C1c1ccc(OC)cc1 (stereo unspecified)	nt	-24.0
CCOC(=O)c1cc(C)n(-c2ccc(-c3csnn3)cc2)c1C	-3.2	nt
COc1cc2c(cc1OC)C(C)N(S(=O)(=O)c1ccc(-c3ccccn3)s1)CC2 (stereo unspecified)	-1.6	nt
O=C(CSc1nc(C2CC2)n(-c2ccccc2)n1)Nc1cc2[nH]c(=O)[nH]c2cc1Br	nt	12.0
COc1cc2cccc(OC)c(=O)c2c(O)c1OC	nt	10.0
COC(=O)c1cnc(Nc2cc(OC)ccc2OC)c2ccccc12	nt	-1.0
Nc1c(C(=O)c2ccccc2)sc2snc(SCC(=O)c3ccccc3)c12	-5.0	-54.0
CCC1Sc2ccc(S(=O)(=O)CCC(=O)Nc3ccccc3C)cc2NC1=O (stereo unspecified)	nt	-17.0
CC(C)(C)NC(=O)C12CC3CCC(CC(C3)C1)C2	4.6	-3.0
COC(=O)c1c(OC)ccc(NC=C(C#N)C#N)c1OC	nt	26.0

An excerpt from above in order of SMILES length, lowest first.
SMILES	MgrA-DNA mod	Sa helicase inh
CCOC(=O)c1cc(C)n(-c2ccc(-c3csnn3)cc2)c1C	-3.2	nt
Nc1c(C(=O)c2ccccc2)sc2snc(SCC(=O)c3ccccc3)c12	-5.0	-54.0
CCN1CCCC1CNC(=O)C1c2ccccc2C(=O)N(C)C1c1ccc(OC)cc1 (stereo unspecified)	nt	-24.0

Remaining list, next part:
SMILES	MgrA-DNA mod	Sa helicase inh
COc1ccccc1N(CC(=O)NC1CC2CCC1C2)S(=O)(=O)c1ccc(C)cc1 (stereo unspecified)	3.2	7.0
COc1ccc(C2=NS(=O)(=O)N(C)C(C(=O)N3CCC(C)CC3)=C2)cc1OC	0.6	9.0
N#CCOc1nc(C(F)(F)F)nc2c1cnn2-c1ccccc1	nt	-165.0
Cc1cc(NC(=O)NC(=O)c2csnn2)no1	-0.9	nt
Cc1ccc2nc(C(=O)O)c(C(=O)O)nc2c1	-2.0	8.0
c1ccc(-c2cc(-c3cn4cccnc4n3)on2)cc1	nt	-14.0
NC(=O)C1CN(C(=O)CN2CSCC2=O)c2ccccc2O1 (stereo unspecified)	nt	0.0
CN(C)c1ccc2sc(=S)[nH]c2c1	3.0	-9.0
O=C(c1nc(-c2ccc(Cl)cc2)n2c1CCCCC2)N1CCCCCC1	1.1	-4.0
COc1cc(/C=C(\C#N)C(=O)N2CCOCC2)cc(OC)c1OC	nt	13.0
COc1ccc(OC)c(-n2c(SCC(=O)N3CCOCC3)nnc2-c2c[nH]c3ccccc23)c1	nt	1.0
O=c1[nH]c(-c2ccc3c(c2)OCO3)nc2ccccc12	1.3	12.0
CCN1Cc2ccccc2CC1C(=O)O (stereo unspecified)	-4.3	18.0
CC(=O)Nc1sc2c(c1C(N)=O)CCCC2	2.5	1.0
O=C(NCCCN1CCCC1=O)c1c(O)nc2ccccn2c1=O	nt	-20.0
N#C/C(=C(/O)CCCN1C(=O)c2ccccc2C1=O)c1nc2ccccc2[nH]1	-1.4	5.0
CC(O)(CNCc1ccc(Cl)cc1)CSc1ccccc1Cl (stereo unspecified)	-3.6	nt
Cc1ccccc1C(=O)ON1CCCc2ccccc21	nt	22.0
COc1ccc(N=Cc2ccccc2N2CCN(C)CC2)cc1	-1.1	nt
O=C(OCc1c(Cl)cccc1Cl)c1ccc(Br)o1	-2.2	12.0
CSc1sccc1/C=C(/C#N)S(C)(=O)=O	0.4	nt
CCOc1ccc(-c2nnn(CC(=O)NC3CCCCC3)n2)cc1	-1.0	16.0
CCOc1ncccc1C(=O)Oc1ccc2c(c1)OCO2	nt	-6.0
Cc1cc(C(=O)OCC(=O)N2c3ccccc3Sc3ccccc32)no1	nt	5.0
CC(OC(=O)c1ccc(Oc2ccccc2)cc1)C(N)=O (stereo unspecified)	nt	-13.0
COc1ccc(/C=C2\SC(=O)N(CC(=O)Nc3sc4c(c3C(N)=O)CCCC4)C2=O)cc1OC	1.2	nt
CC(=O)N1CC=C2C(C#N)=C(N)C(C#N)(C#N)C(CCc3ccccc3)C2C1 (stereo unspecified)	5.4	2.0
O=C(NCC(O)c1ccc2ccccc2c1)c1c(F)cccc1F (stereo unspecified)	0.5	nt
NS(=O)(=O)c1cccc(C(=O)OCc2ccc(Cl)cc2)c1	nt	2.0
Cc1cc(-c2ccccc2N)n[nH]1	nt	-8.0

The final 2 compounds of the section before come first, to join the parts.
SMILES	MgrA-DNA mod	Sa helicase inh
NS(=O)(=O)c1cccc(C(=O)OCc2ccc(Cl)cc2)c1	nt	2.0
Cc1cc(-c2ccccc2N)n[nH]1	nt	-8.0
NC(=O)CSc1nnc(-c2cccnc2)n1-c1ccccc1	2.3	11.0
COC(=O)c1cnc(-n2ncc(C#N)c2N)nc1C(F)(F)F	-0.6	nt
O=C(NCCc1c[nH]c2ccccc12)c1cc2ccccc2oc1=O	-1.1	3.0
O=S(=O)(NCc1ccc2c(c1)OCO2)c1ccc(F)c(Cl)c1	-0.2	nt
CCCNC(=O)c1cc(-c2ccccc2)on1	-5.2	13.0
O=C(O)CNC(=O)c1ccc2ccccc2c1	nt	2.0
N#CC(c1ccc(Br)cc1)N1CCN(C(C#N)c2ccc(Br)cc2)CC1 (stereo unspecified)	0.1	-11.0
COc1ccc(-c2ccc(Nc3ccc(OC(F)(F)F)cc3)nn2)cc1	-1.0	11.0
Nc1ccccc1SC(CC(=O)c1ccc(Br)cc1)c1ccccc1 (stereo unspecified)	1.8	nt
O=c1cc(CSc2nnc(-c3ccccc3)o2)c2ccccc2[nH]1	0.0	1.0
NNc1ccccc1C(F)(F)F	7.6	17.0
Cc1ccc2nc(C3CCCN(C(=O)NCc4ccccc4)C3)[nH]c2c1 (stereo unspecified)	-3.9	21.0
c1ccc2c(c1)NC(c1ccc3c(c1)OCO3)O2 (stereo unspecified)	0.7	nt
COc1ccccc1CNC(=O)COc1cc(C)nn1-c1ccc(Cl)cc1	-0.6	-14.0
COc1cc(OCc2ccccc2)ccc1CN1CCN(Cc2ccccc2)CC1	-2.6	nt
CC1CCN(C(=O)c2cc3n(n2)C(C(F)(F)F)CC(c2ccccc2)N3)C(C)C1 (stereo unspecified)	0.3	4.0
CC1CCCC(NC(=O)Nc2noc3c2COc2ccccc2-3)C1C (stereo unspecified)	nt	-28.0
CSC1=C(C#N)C(c2ccccc2Cl)C2=C(CCCC2=O)N1 (stereo unspecified)	-1.4	9.0
CC12CC3(C)CC(C)(C1)CC(C(=O)NC1=NCCS1)(C2)C3	0.3	-2.0

Assay outcomes as filed in PubChem.
